From PubChem
Beta2AR agonist: activates human beta-2 adrenergic receptor causing internalization; response, % (no concentration beside the values); AID 504454; 340,000 compounds, 0.43% hits; Am2.2-beta2AR cells, FAP receptor internalization, flow cytometry; reference of the scale not given here;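 active means response above a set limit, near 3 SD of response in nonfluorescent compounds, cut at about 42% in these data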;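 further: stock transfer was 100 nL into about 11 µL; a reference agonist was the positive control; negative values mostly stem from fluorescent compounds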
Target sequence (P07550 whole entry, looked up): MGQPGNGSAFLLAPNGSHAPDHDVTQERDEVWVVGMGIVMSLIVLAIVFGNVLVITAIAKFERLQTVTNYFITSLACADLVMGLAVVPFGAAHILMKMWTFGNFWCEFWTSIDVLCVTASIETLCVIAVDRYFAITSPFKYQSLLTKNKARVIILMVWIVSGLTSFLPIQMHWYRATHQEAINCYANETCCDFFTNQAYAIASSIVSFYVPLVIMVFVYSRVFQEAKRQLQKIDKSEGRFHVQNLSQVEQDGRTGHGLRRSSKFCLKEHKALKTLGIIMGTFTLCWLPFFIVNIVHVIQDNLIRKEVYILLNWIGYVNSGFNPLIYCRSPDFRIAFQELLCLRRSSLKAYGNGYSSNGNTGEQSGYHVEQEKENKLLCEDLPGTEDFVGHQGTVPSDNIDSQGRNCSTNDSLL
The depositor's hits bear a star. A portion of the library (hit frequency here may not be typical).

Beta2AR agonist | Compound
12 | O=C(/C=C/c1ccccc1[N+](=O)[O-])Nc1cccc(S(=O)(=O)NC2=NCCCCC2)c1
-3 | COc1cc2c(c(OC)c1OC)-c1ccc(SC)c(=O)cc1C(NC=O)CC2 (stereo not given)
-2 | O=[N+]([O-])c1ccc(COc2ccccc2CN2CCOCC2)cc1
-9 | COc1cc(C2c3cc4c(cc3OC(N3CCOCC3)C2C)OCO4)cc(OC)c1OC(C)=O (stereo not given)
-23 | O=[N+]([O-])c1ccc(/C=N/N=C/c2ccc([N+](=O)[O-])o2)o1
6 | O=C1CCC[C@@H]2[C@@H](Cc3ccccc3)[C@H](N3CCN(c4ccccc4)CC3)C[C@@H]3CCN1[C@@H]32
-8 | COc1ccc(C2CC(=O)Oc3cc(C)cc(C)c32)cc1 (stereo not given)
5 | CC/C(=C(/c1ccccc1)c1ccc(OCC[N+](C)(C)C)cc1)c1ccccc1
0 | O=C(Cn1cc(COc2c(Br)cc(F)cc2Br)nn1)c1ccc(O)cc1
20 | O=C(/C=C/c1ccccc1)Nc1cccc(C(=O)NCCCc2ccccc2)c1
-9 | O=C1CCCCC1Nc1ccc([N+](=O)[O-])cc1 (stereo not given)
-15 | O=c1[nH]c(=O)n(C2OC(CO)C(O)C2O)cc1F (stereo not given)
12 | O=c1[nH]c2cc3c(cc2cc1C(c1nnnn1C1CCCC1)N1CCCc2ccccc21)OCCO3 (stereo not given)
-5 | CCOC(=O)[C@@H]1CSCCS(=O)(=O)N1
-1 | CCn1c(=NC(=O)CN2C(=O)CCC2=O)sc2c(C)cc(C)cc21

Continuation.
Beta2AR agonist | Compound
-11 | O=C(N=Nc1c(O)[nH]c2ccccc12)Nc1ccccc1
-7 | O=C1NC(=O)C(Cc2ccc(O)cc2)N1 (stereo not given)
-10 | CC(=O)Nc1n[nH]c(=S)s1
23 | O=C(O)c1ccc(NC2=C/C(=N/S(=O)(=O)c3ccccc3)c3ccccc3C2=O)cc1
-3 | CCOc1ccc(CCN2C(=O)C(=O)N([C@@H](CC(C)C)CN3CCC[C@@H]3CN3C(=O)C(=O)NC[C@@H]3Cc3ccccc3)C[C@@H]2Cc2ccc(O)cc2)cc1
-5 | CCCCN1CC(COCc2ccccc2)Oc2cccc(Oc3ccc(C(C)C)cc3)c2S1(=O)=O (stereo not given)
4 | CCN(C(=O)COC(=O)CSc1ccc(C)cc1C)c1c(N)n(Cc2ccccc2)c(=O)[nH]c1=O
-5 | CCCN(CC(=O)Nc1ccccc1OC)C(=O)c1ccc(S(=O)(=O)Nc2ccccc2OC)cc1
-6 | O=C(NCCCCc1ccccc1)c1cccc(NC(=O)C2CCC2)c1
-7 | CCC(C)C(N)C1=NC(C(=O)N[C@@H](CC(C)C)C(=O)N[C@H](CCC(=O)O)C(=O)N[C@H](C(=O)N[C@H]2CCCCNC(=O)[C@H](CC(N)=O)NC(=O)[C@@H](CC(=O)O)NC(=O)[C@H](Cc3cnc[nH]3)NC(=O)[C@@H](Cc3ccccc3)NC(=O)[C@H]([C@@H](C)CC)NC(=O)[C@@H](CCCN)NC2=O)[C@@H](C)CC)CS1 (stereo not given in full)
-134 | CC(=NNc1nc2ccccc2o1)c1cc2ccccc2cn1
3 | O=c1nc2n(CCO)c3ccccc3cc-2c(=O)[nH]1
-15 | O=C(c1ccc(F)cc1)c1cccc(C(=O)c2ccc(F)cc2)n1
0 | O=C(Nc1c(Br)cc2c(c1Br)Cc1ccccc1-2)C(F)(F)F
-6 | CC(=O)N(C)c1cc([N+](=O)[O-])ccc1OCc1ccccc1

(list continues)
Beta2AR agonist | Compound
-4 | O=C(CN(C(=O)c1ccccc1)C(=O)c1ccccc1)OCc1ccccc1
-6 | Cc1ccccc1NC(=O)N(O)C1(C#N)CCCCC1
24 | CCN(c1ccc2c(c1)OCO2)S(=O)(=O)c1cc2c(cc1Br)CCN2C(=O)C1CC1
-2 | Cc1c(C(=O)N/N=C/c2ccncc2)nnn1-c1nonc1N
-3 | CC(C)C[C@H]1CNC(=O)C(=O)N1CC1CCN(CCc2ccc(-c3ccccc3)cc2)CC1
3 | N#Cc1ccc(C(=O)N2CCC3CC2c2cc(-c4ccc(F)cc4)ccc23)cc1 (stereo not given)
-8 | O=C(O)C12C3CCC(O3)C1(C(=O)O)C1CCC2O1 (stereo not given)
-4 | Cc1cccc(C2=NN(c3ccccc3)[C@@H](C(=O)N3CCOC3=O)[C@@H]2c2ccc([N+](=O)[O-])cc2)c1
-13 | O=C(Cc1ccccc1)c1ccccn1
7 | NCC1CCN(c2nc3ccccc3c3c2CCCC3)CC1
2 | COc1ccc(C(=O)NCC(C)(C)N2CCOCC2)cc1S(=O)(=O)NCc1ccc(Cl)cc1
-12 | CC(C)C[C@@H](CNCC(=O)[C@H](C)NC(=O)c1[nH]cnc1C(=O)N[C@@H](C)CN)NC(=O)c1nc[nH]c1C(=O)N[C@@H](C)C(=O)O
-2 | O=C(Nc1ccn(CCCNCc2ccc3c(c2)OCO3)c(=O)n1)OCc1ccccc1
-23 | CC(=O)N1CCCC1C(=O)O (stereo not given)
9 | CC(=O)c1sc2c(c1OC(=O)c1ccccc1)c(=O)n(-c1ccccc1)c(=S)n2-c1ccccc1

Arranged by the number under Beta2AR agonist (highest first): 3 from the list above
Structure	Beta2AR agonist
O=c1nc2n(CCO)c3ccccc3cc-2c(=O)[nH]1	3
O=C(CN(C(=O)c1ccccc1)C(=O)c1ccccc1)OCc1ccccc1	-4
O=[N+]([O-])c1ccc(/C=N/N=C/c2ccc([N+](=O)[O-])o2)o1	-23

Additional compounds
Beta2AR agonist | Compound
0 | CCOc1cc(C(=O)N/N=C/c2cn(-c3ccccc3)nc2-c2cc3ccccc3o2)cc(OCC)c1OCC
-7 | O=CNC1(c2ccccc2)CCCCC1
-1 | COc1cccc(-c2ccc3c(c2)C2CC3CCN2C(C)=O)c1 (stereo not given)
-8 | O=C(Nc1ccn(CCCNCc2ccccc2)c(=O)n1)OCc1ccccc1
-4 | O=C1ON(Cc2ccccc2)C(c2ccccc2)N1c1ccccc1 (stereo not given)
-5 | Nc1nc(-c2ccccc2)ns1
-7 | COc1cc2c(cc1OC)CN(C1CCC(C(C)(C)C)CC1)CC2 (stereo not given)
2 | O=c1ccn([C@@H]2O[C@H](CNS(=O)(=O)C3CC3)[C@@H](O)[C@H]2O)c(=O)[nH]1
-6 | CC(C)C[C@@H](CO)NS(=O)(=O)c1c(F)cccc1F
1 | NC(CSC1(c2cccc3ccccc23)c2ccccc2-c2ccccc21)C(=O)O (stereo not given)
10 | O=C1Cc2c([nH]c3ccc(Br)cc23)-c2ccccc2N1
0 | COc1ccc(C2(CNC(=O)c3cc(OC)c(OC)c(OC)c3)CCCC2)cc1OC
21 | COc1cc(C(=O)NC2CCN(C)CC2)ccc1Nc1ncc2c(n1)N(Cc1ccccc1)CCC(=O)N2C
3 | O=S(=O)(NC(CO)Cc1ccccc1)c1ccc(Br)cc1F (stereo not given)
-131 | COc1cccc2c1C(=O)c1c(O)c3c(c(O)c1C2=O)CC(O)(C(=O)CO)CC3OC1CC(N(C)C)C(O)C(C)O1 (stereo not given)

Further structures follow.
Beta2AR agonist | Compound
-2 | CC(=NNC(=S)N1CCC1)c1ccccn1
6 | CCOC(=O)NC1CCc2cc(OC)c(OC)c(OC)c2-c2ccc(SC)c(=O)cc21 (stereo not given)
-3 | CN(C)CCNC(=O)c1ccc(Cl)c2cc3ccccc3nc12
-5 | CN(CC(=O)Nc1cccc(F)c1)C(=O)C1CCC(C(=O)N(C)CC(=O)Nc2cccc(F)c2)CC1 (stereo not given)
12 | CCOC(=O)c1c2c(n(-c3ccc(OC)cc3)c1C)C(=O)C(=O)c1ccccc1-2
-45 | CCN(CC)C1Oc2cc3c(cc2C(c2cc(OC)c(O)c(OC)c2)C1C)OCO3 (stereo not given)
13 | COc1ccc2c(c1)CCCC(Br)C2=O (stereo not given)
4 | COc1ccc(CCCN2CCC(CN3C(=S)NC[C@@H]3Cc3ccccc3)CC2)cc1OC
24 | CC(C)Cc1ccc(C(C)CC2=CCC(CN(C)C)C2=O)cc1 (stereo not given)
-1 | CCNC(COC(=O)c1ccc([N+](=O)[O-])cc1)C1CCCCC1 (stereo not given)
1 | CCOC(=O)C1=C(C)N(C[C@@H]2CC[C@@H](Cc3ccc(-c4ccccc4)cc3)O2)C(=O)NC1c1ccc(-c2ccccc2)cc1 (stereo not given in full)
3 | COC(=O)c1ccc(N2CCOCC2)c(NC(=O)c2cc3ccccc3o2)c1
3 | COc1cccc(CNc2nc3ccc(NC(C)=O)cc3s2)c1
-1 | COc1cccc(C=NNC(=O)CCCC(=O)NN=Cc2cccc(OC)c2)c1
57* | Cc1c(CCCl)c(Cl)n2c(nc3ccccc32)c1C#N

Entries shown so far that contain a cyano group, in the order listed:
Beta2AR agonist | Compound
-6 | Cc1ccccc1NC(=O)N(O)C1(C#N)CCCCC1
3 | N#Cc1ccc(C(=O)N2CCC3CC2c2cc(-c4ccc(F)cc4)ccc23)cc1 (stereo not given)
57* | Cc1c(CCCl)c(Cl)n2c(nc3ccccc32)c1C#N

More entries
Beta2AR agonist | Compound
-1 | Cc1ccc(S(=O)(=O)NN=C2C(=O)C3CCC2C3Cl)cc1 (stereo not given)
-4 | C=CCCC(=O)N1C[C@H]2CON(C)[C@H]2C[C@H]1c1cccc(Br)c1
-3 | Nc1ccccc1C(=O)C[C@H](N)C(=O)O
-3 | O=C(NCc1ccccc1)c1cccc(NC(=O)C2CCCC2)c1
-2 | NC(=S)NN=C1C=CCCC1
-3 | Cn1c(=O)c2c(nc(OC3CCCC3)n2C)n(C)c1=O
1 | C[C@H](O)[C@@H]1C(=O)N2CCc3ccc(-c4ccccc4)cc3[C@@H]2C[C@@H]1N(C)C(=O)NC1CCCCC1
-2 | CNc1nc(NC)nc(NNC(=O)c2ccccc2)n1
2 | CC(CNCCCn1ccc(NC(=O)OCc2ccccc2)nc1=O)c1ccccc1 (stereo not given)
10 | CC1CC(C)(C)CC2(C1)NC(=O)N(CC(=O)Nc1cc(C(F)(F)F)ccc1N1CCCCC1)C2=O (stereo not given)
-4 | c1ccc2c(c1)nc1n2CCC1
42* | O=C1C=CC2(O[C@H](c3ccccc3)[C@@H](c3ccccc3)O2)[C@H](Sc2ccccc2O)C1
-4 | CON(C)C(=O)/C=C/c1ccc([B-](F)(F)F)cc1
-3 | CC(=O)Nc1ccc(NCc2ccc(-c3ccccc3)cc2)cc1
0 | Nc1cc(Cc2ccccc2)ccc1O

(next part)
Beta2AR agonist | Compound
-2 | Cn1c2nc(=O)[nH]c(=O)c-2cc2ccccc21
-5 | COc1cccc(/C=N/NC(=O)C(=O)N/N=C/c2cccc(OC)c2O)c1O
7 | CC(C)n1c(CNC(=O)c2ccccc2F)nnc1SCC(=O)NC1CCCCC1
2 | CCC12CCC3c4ccc(O)cc4CCC3C1CC(O)C2O (stereo not given)
-2 | C=C1c2nc3ccccc3n2C=C(c2ccc(C)cc2)N1c1ccccc1
3 | COc1ccc(OC)c(NC(=O)C2CC(=O)N(CCc3ccc(F)cc3)C2)c1 (stereo not given)
-3 | CN(C=O)c1cc([N+](=O)[O-])ccc1OCc1ccccc1
11 | Nc1ccc2c(c1)C(=NO)c1cc([N+](=O)[O-])ccc1-2
23 | COc1cc(C(=O)NC2CCN(C)CC2)ccc1Nc1ncc2c(n1)N(CCc1ccccc1)CCC(=O)N2C
12 | Cc1cc(OCc2nc(N)nc(N)c2-c2ccc(Cl)c(Cl)c2)ccc1[N+](=O)[O-]
89* | Cc1cccc2c1c1ccc3c(c1n2C)C(=O)C=CC3=O
0 | O=c1ccn([C@@H]2O[C@H](CNCc3ccc(-n4cccn4)cc3)[C@@H](O)[C@H]2O)c(=O)[nH]1
4 | O=C(N/N=C/c1ccc(Cl)c([N+](=O)[O-])c1)c1ccc2c(c1)OCCO2
-2 | Cc1c(C(c2cc(O)ccc2O)c2c(C)n(C)n(-c3ccccc3)c2=O)c(=O)n(-c2ccccc2)n1C
1 | O=C(c1cccc(Cl)c1)N1CCC2CC1c1cc(N3CCOCC3)ccc12 (stereo not given)

Next part:
Beta2AR agonist | Compound
9 | Cn1c(=O)c2c(nc(OC3CCCCCC3)n2C)n(C)c1=O
0 | COc1ccc(/C=C2/CSC/C(=C/c3ccc(OC)c(OC)c3)C2=O)cc1OC
-14 | CN(N=Cc1cccc2cccnc12)c1ccc([N+](=O)[O-])cc1[N+](=O)[O-]
0 | COc1ccc(C2(C)C(C#N)C(=O)NC(=O)C2C#N)cc1 (stereo not given)
-1 | CCOC(=O)C1CCNC(=O)C1=O (stereo not given)
-25 | NS(=O)(=O)c1ccc(N/N=C/c2ccc(O)c(O)c2O)c([N+](=O)[O-])c1
10 | COc1ccc(-c2ccc3c(c2)[C@@H]2C[C@H]4[C@@H](C(=O)N2CC3)[C@H](C)ON4C)cc1
-1 | CCOc1ccccc1-c1cc(C(=O)N/N=C/c2ccc3c(c2)OCO3)c2ccccc2n1
0 | NC1=NC(=O)C(=Cc2ccccc2)S1
22 | COc1cc(C(=O)NC2CCN(C)CC2)ccc1Nc1ncc2c(n1)N(C1CCCC1)CCC(=O)N2C(C)C
8 | COc1ccc(-c2cc(=O)c3c(OC)c(OC)c(OC)c(OC)c3o2)cc1
-5 | N#CCCN(NC(=O)OCc1ccccc1)C(=O)OCc1ccccc1
6 | O=C(c1ccccc1)N(c1ccccc1)c1ccccc1O
2 | COc1ccc(C2=CCCC2)c(OC)c1
4 | Cc1cc(C)c2nc(Nc3nc(CSc4nc5ccccc5[nH]4)cc(=O)[nH]3)nc(C)c2c1
2 | COc1cc(NCCCn2cnc3c(OCc4ccccc4)ncnc32)cc(OC)c1OC
34 | COc1ccc(NS(=O)(=O)c2cccc(C(=O)N/N=C/c3c(F)c(F)c(F)c(F)c3F)c2)cc1

An excerpt of these results, with each value named:
COc1ccc(C2=CCCC2)c(OC)c1
  Beta2AR agonist: 2
Cc1cc(C)c2nc(Nc3nc(CSc4nc5ccccc5[nH]4)cc(=O)[nH]3)nc(C)c2c1
  Beta2AR agonist: 4
COc1cc(NCCCn2cnc3c(OCc4ccccc4)ncnc32)cc(OC)c1OC
  Beta2AR agonist: 2
COc1ccc(NS(=O)(=O)c2cccc(C(=O)N/N=C/c3c(F)c(F)c(F)c(F)c3F)c2)cc1
  Beta2AR agonist: 34
